# Bioassay records from PubChem BioAssay.
# BasE inh: BasE siderophore biosynthesis inhibition; 84,000 tested, 0.1% active; AID 485350; inhibition, % (concentration not given with the values); purified BasE, fluorescence polarization binding displacement;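 active = both replicates above 25% with normal brightness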;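 note: 0% = negative plate control signal and 100% = positive plate control signal; stock transfer was 100 nL into about 30 µL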
# LANA-nucl inh: LANA-nucleosome interaction inhibition. FITC-LANA1-23 / chicken nucleosome fluorescence polarization; active compounds read low. z-score (no concentration beside the values). 51,000 tested, 0.3% active. AID 720717;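 active = both repeat wells score below -2 in polarization z-score versus plate sample wells, excluding overly bright wells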;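 note: 100 nL library stock added to about 30 µL; numbers are from one replicate; some results filed as inactive read as strong as hits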
#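 Assay system: purified chicken nucleosomes with FITC-labelled LANA N-terminal peptide (1-23) / Probe or stimulus: 50 nM FITC-LANA1-23 probe / Compound dosing: pin-transferred compound, 100 nL / Times: compound with peptide–nucleosome mix 10–45 min at room temperature / Technique: fluorescence polarization, 480 nm excitation, 535 nm parallel and perpendicular emission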
# * = called active by the depositor; x = not tested or not shown; & = joins results of further samples; ! = a repeat was not active.
# Results follow in this order: BasE inh	LANA-nucl inh
> O=c1c2ccccc2nnn1CN1CCN(S(=O)(=O)/C=C/c2ccccc2)CC1
    2.0	x
> CCCC(=O)Nc1ccc(C(=O)CSc2nnc(Cc3ccccc3)o2)cc1
    -1.8	x
> O=C(Nc1cccc(Cl)c1)C1CCN(c2ccc(C(F)(F)F)cn2)CC1
    1.5	-0.72
> COc1ccc(-c2cc(-c3ccccc3)c(C#N)c(SCCS(=O)Cc3ccccc3)n2)cc1 (stereo not given)
    5.5	x
> O=C(c1cccs1)N1N=C2c3ccccc3CCC2C1c1ccccc1Cl (stereo not given)
    -1.3	x
> O=C1CCCC2=C1C(c1ccc(Cl)cc1)Nc1ccccc1N2 (stereo not given)
    -0.1	0.49
> CCOC(=O)c1cc2c(c(CSc3nc4ccccc4c(=O)n3CCN3CCOCC3)c1)OCOC2
    4.4	0.12
> O=C(CN1CCN(C/C=C/c2ccccc2)CC1)Nc1ccccc1C(=O)NC1CC1
    -0.2	x
> CC(=O)N1N=C(CC#N)OC1(C)CC(=O)Nc1ccccc1 (stereo not given)
    1.9	x
> CCOC(=O)Cn1nc(NC(=O)COc2ccc(F)cc2)cc1C
    0.1	0.81
> Cc1cc(C(=O)COC(=O)c2ccc(S(=O)(=O)N3CCCC3)cc2)c(C)n1Cc1cccs1
    0.6	x
> COc1cccc(/C=C2\N=C(SC)SC2=O)c1
    -0.4	x
> Cc1ccccc1N=Cc1sc2ccccc2c1O
    7.6	x
> O=C(O)CONS(=O)(=O)c1ccc(F)cc1
    0.2	x
> Cc1ccc(-n2ncc3c(=O)n(CC(=O)NC4CCCCC4)cnc32)c(C)c1
    -0.5	0.49
> COc1ccc(CCNC(=O)C2COc3ccccc3O2)cc1 (stereo not given)
    1.6	0.62
> COc1ccccc1N1CC(C)(C)C(=O)N(C(=O)c2ccc(C)cc2)C1=S
    0.5	x
> NC(CCc1ccccc1Cl)c1ccc2c(c1)OCCO2 (stereo not given)
    -12	x
> Cc1nnc(SCC(=O)c2cc(C)n(C(C)c3ccccc3)c2C)n(N)c1=O (stereo not given)
    -0.2	x
> O/N=C1\CCCc2nnc3c(c21)CCCC3
    -0.7	0.66
> CCOc1ccc(CO)cc1OCC
    1.9	x
> CCN(CC)S(=O)(=O)c1ccc(N2CCc3ccccc32)nc1
    0.1	x
> CNC(=O)c1cccc(NC(=O)C2=CSCCO2)c1
    0.6	-0.65
> COc1cc(C(=O)NCCC(=O)NC2CCCCC2)cc(OC)c1OC
    4.2	-0.47
> CC1(C)CC(=NO)CC(C)(C)N1
    -1.5	0.098
> CCOC(=O)C1=C(CN2C(=O)c3ccccc3S2(=O)=O)NC(=O)NC1c1ccc(OC)cc1 (stereo not given)
    1.8	x
> COc1cc(F)nc(N)n1
    1.4	-0.58
> CCc1ccccc1N1C(=O)NC(=O)/C(=C\c2ccc(N(CC)CC)o2)C1=O
    -8.7	9.9
> O=C(O)c1ccccc1C(=O)NC1CCCCNC1=O (stereo not given)
    0.7	x
> CC(=O)Nc1ccc(NC(=O)C(NC(=O)C2CCCCC2)C(C)C)cc1 (stereo not given)
    2.1	-0.47
> CCN=C1NN=C(c2c[nH]c3ccccc23)CS1
    0.0	x
> CC(=O)NC(C(=O)c1ccccc1)N1CCCCC1 (stereo not given)
    -0.9	0.77
> O=C(O)CCCSc1nccn1-c1ccccc1
    x	0.36
> CN1CCN(S(=O)(=O)c2ccc(Br)c3ccccc23)CC1
    -3.3	-1
> Cc1sc2ncn(CC(=O)NCc3ccccn3)c(=O)c2c1S(=O)(=O)N1CC(C)CC(C)C1 (stereo not given)
    1.5	0.36
> Oc1ccccc1-c1nnc2n1CCCCC2
    1.8	x
> Cc1ccc(C)n1-c1ccc(Oc2ccc(Br)cc2)cc1
    1.2	x
> Cc1cccc(S(=O)Cc2ccc(C(=O)NC3CCCC3)o2)c1 (stereo not given)
    -1.5	0.4
> CO[C@@H]1[C@@H](OC(N)=O)[C@@H](O)[C@H](Oc2ccc3c(O)c(NC(=O)c4ccc(O)c(CC=C(C)C)c4)c(=O)oc3c2C)OC1(C)C
    3.4	0.34&0.6
> O=C(NC1(C(F)(F)F)NC(=O)N(c2ccc(F)cc2)C1=O)c1ccco1 (stereo not given)
    -0.7	-0.004

# Random excerpt: 2 records from the list, in no set order.
# Results follow in this order: BasE inh	LANA-nucl inh
> CCOC(=O)Cn1nc(NC(=O)COc2ccc(F)cc2)cc1C
    0.1	0.81
> Cc1sc2ncn(CC(=O)NCc3ccccn3)c(=O)c2c1S(=O)(=O)N1CC(C)CC(C)C1 (stereo not given)
    1.5	0.36

# Next part:
# Results follow in this order: BasE inh	LANA-nucl inh
> CCCCN(Cc1ccco1)C1=NC(Cc2ccccc2)C(=O)N1c1ccc(C)cc1C (stereo not given)
    -0.8	-0.15
> Cc1ccc2oc(-c3ccc(N(C)C)cc3)cc(=O)c2c1
    15	x
> N#Cc1ccc(NC(=O)COC(=O)CN2CSCC2=O)cc1
    -1.9	x
> Cn1c(SCc2cc(=O)[nH]c(=O)[nH]2)nnc1C(F)(F)F
    -1.0	-0.25
> CC(C)(C)OC(=O)N1CCC[C@H]1C(=O)OCc1cc(=O)n2cc(Br)ccc2n1
    -1.3	x
> CCCNC(=O)NCc1n[nH]c(=O)c2ccccc12
    0.6	-0.63
> Cc1oc2cc(OCC(=O)O)ccc2c(=O)c1-c1ccc2c(c1)OCCO2
    -0.4	0.33
> c1ccc(-n2ncc3c(SCCC4OCCO4)ncnc32)cc1
    -2.3	2.5
> CN1C(=O)CSC1=Nc1cccc(C(=O)O)c1
    0.7	-0.92
> Cc1nc2sc3c(c2c(=O)n1N)CCCC3
    1.8	x
> CC(Sc1nnc(-c2cccs2)n1C1CC1)C(=O)NCC1CCCO1 (stereo not given)
    1.6	x
> CCN(CC)C(=O)Sc1cccc2cccnc12
    -1.5	x
> CN(C)c1ccc(C(=C2C=CC(=[N+](C)C)C=C2)c2ccc(N(C)C)cc2)cc1
    2.3	-4.1*!
> CC(=O)Nc1cccc(Oc2ncnc3scc(-c4ccc(C(C)C)cc4)c23)c1
    2.0	x
> O=C(CSc1ncc(C(F)(F)F)cc1Cl)NC(=O)CN1CCCC1=O
    0.1	x
> O=c1[nH]c2cc3c(cc2cc1CN(Cc1ccc2c(c1)OCO2)S(=O)(=O)c1ccc(F)cc1)OCO3
    6.5	-0.21
> CCOC(=O)c1cc(CSc2n[nH]c(=O)n2-c2ccccc2)nn1C(C)(C)C
    2.3	x
> Cc1cccc(-c2nnc(SCc3ccc(C#N)cc3)n2CC(N)=O)c1
    0.5	x
> O=C(Cn1c(C(F)(F)F)nc2ccccc21)Nc1ccccc1C(=O)O
    x	-0.67
> CCCc1cc(NCCCN(CC)CC)n2c(nc3ccccc32)c1C#N
    2.4	0.41
> Cc1cc(/C=C(/C#N)S(C)(=O)=O)c2c(C)ccc(C(C)C)cc1-2
    3.4	x
> CC1=CC(=O)NC2C=CC=CC12 (stereo not given)
    -3.6	0.56
> CC(C)OCc1ccc(C(=O)O)cc1
    1.4	x
> COC(=O)c1cc(-c2ccc3c(c2)OCO3)nc2onc(C)c12
    1.3	x
> CC1CN(c2ncnc3scc(-c4ccccc4)c23)CC(C)O1 (stereo not given)
    -2.3	0.71
> Clc1cc(Cl)cc(OCc2nn[nH]n2)c1
    1.5	x
> CCn1c(SCC(=O)c2ccccc2)nc2sc3c(c2c1=O)CCC3
    2.2	x
> Cc1ccn(S(=O)(=O)c2ccccc2)n1
    -1.4	0.54
> CC(C)(C)OC(=O)N1CCC(CNS(=O)(=O)c2cc(Cl)sc2Cl)CC1
    0.6	x
> O=C(NCCC(=O)N1CCN(c2ccc(F)cc2)CC1)c1ccco1
    0.2	x
> Cc1ccccc1C(=O)Nc1nnc(C2=COCCO2)o1
    -1.1	0.32
> COc1ccc(NC(=O)CSc2nnc(CNc3ccc(C)cc3C)o2)c(OC)c1
    -1.0	1
> CN1CCN(NC(=O)c2ccccc2CCc2ccccc2)CC1
    2.0	-1.5
> O=C1/C(=C\c2ccco2)SC(=S)N1CCC(=O)N1CCCc2ccccc21
    -1.5	0.63
> O=C(N/N=C/c1ccccc1C(F)(F)F)c1ccco1
    -6.0	0.84
> CCCCNC(=O)C1CCN(Cc2nc(-c3ccc(Cl)cc3)oc2C)CC1
    -2.8	0.22
> COC(=O)C1CC(=O)N(Cc2ccccc2)C1 (stereo not given)
    x	-0.52
> COC(=O)c1ccc(COc2ccc3c(c2)OCO3)cc1
    -0.1	x
> Nc1nnc(SCC(=O)C2CC2)s1
    -0.4	-0.25
> CC(C)(SC(=S)N1CCCCCC1)C(=O)O
    3.7	x
> O=c1oc2ccccc2cc1-c1nc(-c2cccs2)no1
    0.9	0.35
> Cc1ccc(OCCOC(=O)c2nc3nccc(C)n3n2)cc1
    1.1	x
> Cc1cc(C(=O)Cn2cnc3sccc3c2=O)c(C)n1C1CC1
    -1.2	x
> CC1CN(C(=O)C(C)Nc2ccc(Oc3ccccc3)cc2)CC(C)O1 (stereo not given)
    2.3	x
> O=C(COC(=O)c1cn(-c2ccccc2)nc1-c1cccs1)NC1CCS(=O)(=O)C1 (stereo not given)
    -1.4	x
> COC(CN(C)C(=O)c1ccc(CNS(=O)(=O)c2ccc(C)cc2)cc1)OC
    0.2	0.67
> N#CCOC(=O)c1ccc(-n2cnnn2)cc1
    1.4	x
> Cc1ccccc1-c1nnc(CC23CC4CC(CC(C4)C2)C3)o1
    1.2	0.49
> CC(C)CCSc1nc(-c2cccs2)ccc1C#N
    0.3	0.44
> O=C(O)CSCC(=O)N1CCN(S(=O)(=O)c2cc(Cl)cc(Cl)c2)CC1
    -0.7	x
> Cc1ccc(OCCCn2ccnc2)cc1
    -0.1	-0.36
> Cc1ccc(Cn2nnc3c(=O)n(Cc4cc(C)ccc4C)cnc32)cc1
    0.0	0.16
> COC(=O)c1ccc2c(=O)nc3c(-c4ccccc4)n[nH]n3c2c1
    2.7	-0.48
> COc1ccc(C(CNC(=O)c2ccc3c(c2)SC2=NS(=O)(=O)CCN23)N2CCOCC2)cc1 (stereo not given)
    0.8	x
> CN(C)CCNC(=O)C(c1ccccc1)c1ccccc1
    -0.6	x
> CCc1ccc(N2C(=O)/C(=C/c3cccn3C(C)(C)C)C(=O)NC2=S)cc1
    -0.2	x
> CNC(=O)CSc1ncnc2sc3c(c12)CCCC3
    2.0	-1.1
> COc1ccc2cc1Oc1ccc(cc1)C[C@H]1c3cc(c(OC)cc3CCN1C)Oc1c(OC)c(OC)cc3c1[C@H](C2)N(C)CC3
    -2.6&-1.9	-0.53&0.043
> OC1CN=C2C=CC=CN2C1 (stereo not given)
    3.0	-0.045
> CS(=O)(=O)N(CC(=O)O)c1cccc2ccccc12
    1.3	-0.12

# (list continues)
# Results follow in this order: BasE inh	LANA-nucl inh
> CC(=O)OC12CC3C4CC(O1)C1C4CC3C12 (stereo not given)
    -0.7	x
> Cc1cc(-c2onc(C)c2C(=O)NC(=O)Nc2ccccc2)no1
    3.1	x
> O=C1C=CC(=O)N1c1ccccc1
    1.0	x
> O=C1CSc2ccc(C(=O)NCCSCc3ccco3)cc2N1
    -8.2	x
> COc1ccc(NC(=O)Nc2nnc(N(C)Cc3ccccc3)s2)cc1
    -2.9	2.3
> O=C(C1COc2ccccc2O1)N1CCN(c2ccccc2)CC1 (stereo not given)
    1.9	-0.77
> Cc1noc(C)c1COc1ncnc2ccccc12
    2.0	x
> Cc1ccc(C(=O)N2CCOCC2)cc1C
    -1.6	x
> CCCCN1CN(CCCN2CCCCC2)Cn2c1nc1ccccc12
    -2.7	x
> CC(C)(C)c1ccc(NC(=O)NC2CCCc3ccccc32)cc1 (stereo not given)
    1.6	x
> COc1ccc(CC(=O)Nc2ccccc2)cc1
    -0.4	x
> Cc1occc1-c1nnc(SCC(=O)c2ccc(OC(F)F)cc2OC(F)F)n1C
    0.4	x
> C=CC[n+]1ccc(/C=C/c2ccccc2O)c2ccccc21
    -1.0	x
> COc1ccc(CCn2c(C)cc(C(=O)Cn3cnc4c(oc5ccccc54)c3=O)c2C)cc1
    2.9	x
> CC1CN(C(=O)C2CCCCC2)C(C)CN1C(=O)C1CCCCC1 (stereo not given)
    1.7	x
> COc1ccc(-c2cccc(NC(=O)c3ccccc3)c2)nn1
    -3.5	-0.07
> CC(C)(C)NC(=O)c1ccccc1C(=O)NC(C)(C)C
    0.5	0.21
> Cc1ccc(S(=O)(=O)Cc2ccc(C(=O)N3CCC(C(N)=O)CC3)o2)cc1
    0.8	-0.91
> Cc1cc(C)c2c(n1)sc1c(=O)n(C(C)(C)C)nnc12
    2.2	1
> CCc1nc2ccccc2n1Cc1ccccc1
    0.2	-0.6
> CCOCCCNc1nc2nc3ccc(C)cn3c(=O)c2cc1C(=O)NC1CCCCC1
    0.3	0.61
> CC(C)N(Cc1nnc(-c2ccccc2)o1)C(=O)COc1ccc(C#N)cc1
    -0.7	x
> CCCS(=O)(=O)N1CCN(Cc2ccc(OC)c(OCC)c2)CC1
    1.3	-0.17

# Some of these compounds in order of molecular weight, ascending.
# Results follow in this order: BasE inh	LANA-nucl inh
> COc1ccc(CC(=O)Nc2ccccc2)cc1
    -0.4	x
> CC(C)(C)c1ccc(NC(=O)NC2CCCc3ccccc32)cc1 (stereo not given)
    1.6	x
> Cc1cc(-c2onc(C)c2C(=O)NC(=O)Nc2ccccc2)no1
    3.1	x
> O=C1CSc2ccc(C(=O)NCCSCc3ccco3)cc2N1
    -8.2	x
> Cc1ccc(S(=O)(=O)Cc2ccc(C(=O)N3CCC(C(N)=O)CC3)o2)cc1
    0.8	-0.91

# This is a subset (hit frequency here may not be typical).
